Bioassay records as filed in PubChem BioAssay.
Mtb H37Rv: Confirmatory growth inhibition assay against Mycobacterium tuberculosis H37Rv, potency (AID 1949); most inactive calls were filed without a number and no value below 0 was filed; inhibition, % at 10 µg/mL, or IC50 in µg/mL where a hit was titrated; 1.6% of 100,000 active;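 active = confirmed in a dose series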;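 also: bacteria grown 7 days with compound before Alamar blue readout; 0% = untreated bacteria and 100% = reference antibiotic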
Active calls of the source: *; i = inactive.

SMILES	Mtb H37Rv
O=C1CC2(CCCC2)CC(=O)N1c1ccccc1Cl	i
COc1cc(OC)c(/C=C(/C#N)c2nc3ccccc3[nH]2)cc1Cl	i
COc1ccc(-n2c(C)nnc2SCC(=O)Nc2ccc(F)c(Cl)c2)cc1	i
CCOc1ccc(CCNC(=O)Nc2ccccc2[N+](=O)[O-])cc1OCC	1.9%
C/C(=N\N=C1\NC(=O)C(CC(=O)Nc2ccc(Cl)cc2)S1)c1ccc([N+](=O)[O-])cc1 (stereo not given)	4.7%
O=C(Nc1nc2ccc(S(=O)(=O)N3CCOCC3)cc2s1)c1ccncc1	i
COc1ccc(Cl)cc1Nc1ncnc2sc3c(c12)CCC3	i
Clc1ccc(-c2cn3cccnc3n2)cc1Cl	i

Given as labelled records: part of the list above
canonical_smiles: COc1ccc(Cl)cc1Nc1ncnc2sc3c(c12)CCC3
  Mtb H37Rv = i

canonical_smiles: Clc1ccc(-c2cn3cccnc3n2)cc1Cl
  Mtb H37Rv = i

Going on with the list.
SMILES	Mtb H37Rv
O=C1CCCc2c1cc(C(=O)O)c(=O)n2-c1ccccc1	i
C=CCn1c(CNC(=O)c2ccccc2F)nnc1SCC(=O)Nc1nc(-c2ccccc2)c(C)s1	i
COc1cc(C=O)ccc1OCCSc1ccccc1	14.8%
Cc1ccc(C(=O)CCC(=O)Nc2ccccc2F)cc1	i
Cn1nnc(NC(=O)c2ccc(F)cc2)n1	i
O=C(NC12CC3CC(CC(C3)C1)C2)c1ccccc1O	i
O=C(NCc1ccc(Cl)cc1)C1CCN(S(=O)(=O)c2ccc(Cl)cc2)CC1	i
CCC(C)(C)C(=O)N1CCN(c2ccccc2)CC1	i
CCOc1ccc(C(=O)Nc2nc(-c3ccc(Cl)cc3)cs2)cc1[N+](=O)[O-]	4.0%
Cc1sc2nc(SCC(=O)Nc3ccccc3F)n(-c3ccc(F)cc3)c(=O)c2c1C	7.6%
Cc1ccc(NC(=O)C2CC(Cl)=CCC2C(=O)O)c([N+](=O)[O-])c1 (stereo not given)	i
COc1nc(-c2ccccc2)ccc1-c1noc(-c2ccco2)n1	6.2%
CC(N)C(=O)Nc1ccccc1-c1ccccc1 (stereo not given)	i
CS(=O)(=O)N(CC(=O)Nc1ccc2ccccc2c1)c1cccc(F)c1	5.3%
COc1cc([N+](=O)[O-])ccc1NC(=O)C(Sc1ccccc1)c1ccccc1 (stereo not given)	i
CN(Cc1ccccc1)C(=O)C1CCCN(Cc2cccc(Br)c2)C1 (stereo not given)	i
COc1ccc(C(C)C)cc1S(=O)(=O)n1cnc2cc(C)c(C)cc21	6.0%
COc1ccc(C2(C(=O)Nc3cc([N+](=O)[O-])ccc3C)CCCC2)cc1OC	0.5%
CCOC(=O)N1CCN(C(=O)C2CCN(S(C)(=O)=O)CC2)CC1	2.5%
C=CCn1c(SCC(=O)N2CCCC2)nc2sc3c(c2c1=O)CCCC3	8.3%
Cc1cc2oc3c(c(=O)c2cc1C)C(c1ccc(Br)cc1)N(Cc1ccc(F)cc1)C3=O (stereo not given)	17.0%
CN1C(=O)C2(C(C#N)=C(N)Oc3n[nH]c(-c4ccccc4)c32)c2cc([N+](=O)[O-])ccc21 (stereo not given)	i
CN(CC(=O)NCC1CCCO1)S(=O)(=O)c1ccc(Br)cc1 (stereo not given)	0.4%
CCOc1cc(C(=O)NC(=S)Nc2cc(C(=O)O)ccc2OC)cc(OCC)c1OCC	i
CCCCC(=O)NC(c1ccc(N(CC)CC)cc1)c1ccc2cccnc2c1O (stereo not given)	i
O=C(N1CCN(c2nc(-c3ccccc3)c3cc(Br)ccc3n2)CC1)C(F)(F)F	38.8%
COc1ccc(S(=O)(=O)NCCN2CCOCC2)c2ccccc12	i
O=C(Nc1ccc2oc(-c3ccncc3)nc2c1)c1ccc(Br)cc1	5.8%
COCC(C)NS(=O)(=O)c1ccc(Cl)cc1 (stereo not given)	2.0%
COc1ccc(C2C=C(c3ccccc3Cl)Nc3nnnn32)cc1 (stereo not given)	i
COc1ccc(C2NC(=S)NC(c3ccccc3)=C2C(=O)Nc2ccc(C)cc2)cc1Br (stereo not given)	1.1%
Cc1oc(CC(C)C)cc1C(=O)Nc1cccc(C(=O)O)c1	i
CCC(=O)c1ccc(OCCNC)cc1	i
O=C(Nc1ccccc1C(F)(F)F)C1CCN(C(=O)Cc2ccccc2)CC1	i
Cc1ccc(Nc2nc(N3CCOCC3)nc(=O)[nH]2)cc1	i
COc1ccc(CCNC(=O)C2C3C=CC(O3)C2C(=O)O)cc1OC (stereo not given)	i
CCOC(=O)C1CCN(C(=O)CN(c2cc(C)cc(C)c2)S(C)(=O)=O)CC1	i
CCCC(=O)Nc1sc(C(=O)OC(C)C)c(C)c1C(=O)OCC	4.2%
Brc1cccc(-c2noc(-c3ccc4c(c3)OCO4)n2)c1	i
COC(=O)c1c(NC(=O)c2oc3ccccc3c2C)sc2c1CCC2	i
CC(C)C(=O)Nc1cccc(NC(=O)c2cccc([N+](=O)[O-])c2)c1	i
CC(C)(C)C1CCc2onc(C(=O)O)c2C1 (stereo not given)	i
CCOC(=O)N1CCN(C(=O)c2ccc(C(C)(C)C)cc2)CC1	i
CCOc1cccc(-c2n[nH]c(=S)n2CC)c1	i
CCOC(=O)c1c(C)oc2ccc(N(C(C)=O)S(=O)(=O)c3ccc(F)cc3)cc12	5.1%
COc1ccc(CCNC(=O)CSC2=C(C#N)C(c3ccccc3F)CC(=O)N2)cc1 (stereo not given)	i
COC(=O)c1ccccc1NC(=S)NC(=O)c1cc(OC)c(OC)c(OC)c1	i
COc1cc(OC)c(C(=O)Nc2ccc(Cl)cc2Cl)cc1OC	i
Cc1cc(C)cc(NC(=S)N2CCN(Cc3ccccc3)CC2)c1	i
CCCOc1ccc(N2C(=O)CC(N(C(=O)c3ccco3)c3ccc(OCCC)cc3)C2=O)cc1 (stereo not given)	i
O=C(CN(c1cccc(Cl)c1Cl)S(=O)(=O)c1ccccc1)N1CCOCC1	i
C=CCn1c(SCC(=O)Nc2ccccc2C(=O)OC)nnc1-c1cc(Br)ccc1O	i
Cc1ccc(OCC(=O)Oc2ccc(Br)c3ccccc23)cc1	i
CC(NC(=S)Nc1ccc(F)c(Cl)c1)C1CCCO1 (stereo not given)	1.2%
O=c1n(-c2ccccc2)c(=O)n(Cc2ccccn2)n1Cc1ccccn1	5.1%
c1ccc2c(c1)ncn2CCn1cnc2ccccc21	i

(listing goes on)
SMILES	Mtb H37Rv
O=C(Nc1nc2c(Cl)cccc2s1)c1ccc([N+](=O)[O-])cc1	0.4%
O=C(Nc1cccc2ccccc12)c1cn(-c2ccccc2)nc1-c1cccnc1	i
COc1cc2ccccc2cc1C(=O)Nc1ccc(N2CCOCC2)c(Cl)c1	i
C=CCn1c(SCC(=O)Nc2ccc(OCC)cc2)nnc1-c1cc(Br)ccc1O	i
O=C(CSc1nnc2sc3ccccc3n12)N1CCc2ccccc2C1	i
O=C(CN(CCc1ccccc1)S(=O)(=O)c1cc(Cl)ccc1Cl)NC1CCCC1	i
COc1ccc(C2CC(c3ccccc3C)n3ncnc3N2)cc1 (stereo not given)	2.8%
O=c1c2cccc3c2c(nn1-c1ccccc1)-c1ccccc1-3	i

Quoted from the listing for reference:
SMILES	Mtb H37Rv
O=C1CC2(CCCC2)CC(=O)N1c1ccccc1Cl	i
COc1cc(OC)c(/C=C(/C#N)c2nc3ccccc3[nH]2)cc1Cl	i
COc1ccc(-n2c(C)nnc2SCC(=O)Nc2ccc(F)c(Cl)c2)cc1	i
CCOc1ccc(CCNC(=O)Nc2ccccc2[N+](=O)[O-])cc1OCC	1.9%
C/C(=N\N=C1\NC(=O)C(CC(=O)Nc2ccc(Cl)cc2)S1)c1ccc([N+](=O)[O-])cc1 (stereo not given)	4.7%
O=C(Nc1nc2ccc(S(=O)(=O)N3CCOCC3)cc2s1)c1ccncc1	i

Additional compounds.
SMILES	Mtb H37Rv
COc1cccc(C(=O)Nc2ccc(OCC(=O)c3ccc(Br)cc3)cc2)c1	i
CCN(CC)C(=O)n1nnc2ccccc21	3.9%
CCc1c(C)sc(NC(=O)CCCOc2ccc(Cl)cc2Cl)c1C(N)=O	i
CCc1cccc(C)c1NC(=O)C1C2CCC(O2)C1C(=O)O (stereo not given)	i
O=C(Nc1cccc([N+](=O)[O-])c1)c1cn(-c2ccccc2)nc1-c1cccc(Cl)c1	44.2%
CN(c1ccccc1C(=O)Nc1ccccc1C(=O)NCc1ccco1)S(=O)(=O)c1ccccc1	i
Cc1ccc(CN(CC(=O)Nc2cccc(Br)c2)S(=O)(=O)c2ccccc2)cc1	i
CCCCC(=O)Nc1ccc(C(=O)Nc2cc([N+](=O)[O-])ccc2C)cc1	6.9%
O=C1c2ccccc2C(=O)N1Cc1nc(-c2ccccc2)no1	i
COc1ccc(NC(=O)CN(Cc2ccccc2)S(=O)(=O)c2ccc(C)cc2)cc1OC	0.7%
Cc1ccc(C(=S)N2CCN(Cc3ccccc3)CC2)cc1	i
CC(C)c1nnc(NC(=O)c2ccc(-c3ccccc3)cc2)s1	i
CCc1sc(NS(=O)(=O)c2ccccc2)nc1-c1ccccc1	i
O=C(CSc1nc(-c2ccco2)cc(C(F)(F)F)n1)N1CCc2ccccc2C1	i
CCCCC(=O)Nc1ccc(C(=O)Nc2ccc(OC)cc2)cc1	i
S=c1[nH]nc(C23CC4CC(CC(C4)C2)C3)n1CC1CCCO1 (stereo not given)	i
CCOC(=O)c1c(-c2ccc(C)cc2)csc1NC(=O)CCN1CCOCC1	0.4%
COc1cccc(-n2c(C)cc(C=O)c2C)c1	7.1%
COc1ccc(C(=O)NC(=S)Nc2cccc(NC(=O)c3ccccc3C)c2)cc1Br	21.3%
COc1cc([N+](=O)[O-])ccc1NC(=O)c1cccs1	i
CCc1cccc(CC)c1NC(=O)CCCOc1ccc(Cl)cc1	i
COc1cc2c(cc1NC(=O)c1ccc(S(=O)(=O)N(C)C)cc1)oc1ccccc12	i
O=C(CN1CCc2ccccc2C1)N1c2ccccc2CCc2ccccc21	45.2%
O=C(CSc1nc2ccccc2c(=O)n1-c1ccc(Cl)cc1)Nc1ccccc1Br	i
CCOc1ccc(NC(=O)CN(Cc2ccc(C)cc2)S(=O)(=O)c2ccccc2)cc1	i
O=C(c1ccncc1)c1ccc(NS(=O)(=O)c2ccc(Br)s2)cc1	i
COC(=O)c1ccccc1NS(=O)(=O)c1cc(C(C)(C)C)cc(C)c1C	i
COc1ccc(S(=O)(=O)N2CCN(C(=O)c3ccccc3)CC2)cc1F	i
O=C1c2oc3ccc(Cl)cc3c(=O)c2C(c2ccc([N+](=O)[O-])cc2)N1CCN1CCOCC1 (stereo not given)	i
CCn1c(Cc2ccccc2)nnc1SCc1ccc(Cl)cc1Cl	0.5%
O=C(NC(=S)Nc1nc(-c2ccc3ccccc3c2)cs1)c1ccco1	i
NCCNCCOCCSc1ccc(Cl)cc1	i

Part of the list above in order of formula weight, ascending:
SMILES	Mtb H37Rv
NCCNCCOCCSc1ccc(Cl)cc1	i
COC(=O)c1ccccc1NS(=O)(=O)c1cc(C(C)(C)C)cc(C)c1C	i
CCn1c(Cc2ccccc2)nnc1SCc1ccc(Cl)cc1Cl	0.5%
CCOc1ccc(NC(=O)CN(Cc2ccc(C)cc2)S(=O)(=O)c2ccccc2)cc1	i
O=C1c2oc3ccc(Cl)cc3c(=O)c2C(c2ccc([N+](=O)[O-])cc2)N1CCN1CCOCC1 (stereo not given)	i

(next part)
SMILES	Mtb H37Rv
COc1ccc(NC(=O)c2cc(C)ccc2C)cc1	i
CCC(=O)NC(=S)Nc1cc(C)c(C)cc1Br	i
N#Cc1nc(COc2ccccc2)oc1N1CCOCC1	i
NC(=O)c1cc(-c2ccccc2)sc1NC(=O)C(Cc1ccccc1)N1C(=O)c2ccccc2C1=O (stereo not given)	i
CN(CC(=O)Nc1ccc(F)c(Cl)c1)S(=O)(=O)c1ccc(F)cc1	i
Cc1cc(OCc2ccccc2)c2c(C)c(CC(=O)O)c(=O)oc2c1	i
COc1c(C)cc(Br)cc1C(=O)NC(=S)Nc1ccc(-c2nc3ccccc3o2)c(O)c1	i
Cc1cc(C)c2c(N)c(C(=O)NCc3ccccc3)sc2n1	i
CCN(CC)C(=O)c1sc(NC(=S)Nc2ccc(S(=O)(=O)NC(=O)c3ccccc3)cc2)c(C(=O)OC)c1C	i
CC(NCC(O)COc1ccccc1C(C)(C)C)c1ccccc1 (stereo not given)	2.55µg/mL*
CCN(CC)C(=O)N1CCN(S(=O)(=O)c2ccccc2)CC1	i
COC(=O)c1c(NC(=O)CC2Sc3ccccc3NC2=O)sc2c1CCC(C)C2 (stereo not given)	3.0%
COc1ccc(OCC#CCOc2ccccc2Br)cc1	15.3%
CCOC(=O)c1sc(NC(=O)C2CC2c2ccccc2)nc1C (stereo not given)	i
COc1ccccc1NC(=O)c1sc2ncn(Cc3ccc(Cl)cc3)c(=O)c2c1C	i
Ic1ccc(OC2CCCCO2)cc1 (stereo not given)	i
CCOc1ccc2nc(NC(=S)NC(=O)c3cccc(C)c3OC)sc2c1	i
CC(=O)NC(=S)N1CCCc2ccccc21	0.5%
COc1ccc(N2C(=O)CC(NCc3ccc(N4CCCC4=O)cc3)C2=O)cc1 (stereo not given)	i
COc1ccccc1CNC(=O)COc1cc(C)c(Br)c(C)c1	4.5%
Clc1ccc(-c2nc3ncccc3o2)cc1	i
CCCCc1ccc(-n2c(Cc3cccs3)n[nH]c2=S)cc1	i
O=C(c1ccco1)N1CCN(C(=O)c2cc(-c3ccccc3)nc3ccccc23)CC1	i
COCCCNC(=O)c1ccccc1-c1ccccc1	i
COc1ccccc1C(=O)Nc1ccccc1C(=O)N1C(C)CCCC1C (stereo not given)	i
CCOC(=O)C1=NN(c2ccccc2)CC1C(=O)OC (stereo not given)	i
O=S(=O)(Cc1ccccc1Cl)NCCOc1ccccc1	i

These rows are one share of the data; the hit share may differ from the screen's.
